SARS PLpro yeast: inhibitors of SARS-CoV papain-like protease in yeast | S. cerevisiae expressing SARS-CoV PLpro, growth rescue; control for the full effect not named in the record | Potency, µM (series often up to 32.9 µM), without a hit: at the highest dose activity, positive = growth rescue | 0.19% of 330,000 active | AID 485353; active means well fitted rising curve with a large enough effect; inconclusive means small, poorly fitted or top-dose-only effect; inactive means no such curve, though single readings can be large or run the other way; further: 0% is about no effect; nearly all actives have a fitted effect of over 55% in size; growth read by luminescence after 48 h
Cruzain inh noDet: inhibitors of Trypanosoma cruzi cruzain without detergent; 2.3% of 200,000 active; Potency, µM, for the others: max response, negative = inhibition, usual class: inhibitors; purified cruzain, Z-FR-AMC fluorescence, no detergent; P25779;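 further: plate controls were enzyme without inhibitor for no effect and buffer without enzyme for full effect; nearly all actives have a fitted effect of over 40% in size; top concentration of the series not given in the record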
Target sequence (P25779 123-467 limits assumed): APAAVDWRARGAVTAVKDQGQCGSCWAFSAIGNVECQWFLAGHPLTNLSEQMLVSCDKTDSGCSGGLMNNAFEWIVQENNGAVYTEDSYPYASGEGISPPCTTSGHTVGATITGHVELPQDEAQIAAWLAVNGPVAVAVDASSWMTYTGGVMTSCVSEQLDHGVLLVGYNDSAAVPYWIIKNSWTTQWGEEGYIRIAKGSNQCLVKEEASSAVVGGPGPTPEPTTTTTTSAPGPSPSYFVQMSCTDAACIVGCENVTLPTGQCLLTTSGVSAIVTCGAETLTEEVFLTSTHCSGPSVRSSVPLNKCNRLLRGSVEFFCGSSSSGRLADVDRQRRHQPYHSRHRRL
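Detergent-free condition (0.00005% Triton X-100) in acetate buffer pH 5.5 with DTT. 1.5 nM enzyme and compound were pre-mixed 15 min, then 2 uM Z-FR-AMC substrate added; reaction progress from fluorescence change between first and third reads (60 s).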
2A StopGo: lowers the luciferase signal of an FMDV 2A StopGo reporter. human cells with a luciferase reporter of 2A StopGo recoding; control for the full effect not named in the record. 1.2% of 410,000 active. Potency, µM (highest dose often 57.9 µM), without a hit: top-dose signal change, negative = less light; active = well fitted falling curve with a large enough effect; inconclusive = small, poorly fitted or top-dose-only effect; inactive = no such curve, though single readings can be large or run the other way; tested in HEK293T cells; further: on the % scale 0 is the no-effect control and ±100 the full control effect; nearly all actives have a fitted effect of over 45% in size; luciferase light after 4 h
LASV entry inh: blocks Lassa virus binding to or entry into cells. Lassa virus pseudotype entry inhibition, cell reporter; control for the full effect not named in the record. Potency, µM (top dose mostly 37.9 µM), without a hit: top-dose activity change, negative = inhibition, usual class: inhibitors. 1.2% of 300,000 active. AID 540256; active means well fitted inhibition curve with a large enough effect; inconclusive means small, poorly fitted or top-dose-only effect, or effect the other way; inactive means flat fitted curve, though single readings scatter; tested in HEK293 cells; further: on the % scale 0 is the no-effect control and ±100 the full control effect; nearly all actives have a fitted effect of over 50% in size; luciferase read-out
Cruzain Triton: inhibitors of Trypanosoma cruzi cruzain with detergent. AID 1478. Potency, µM, inactives show max response, negative = inhibition, actives largely listed as inhibitors. purified cruzain, Z-FR-AMC fluorescence, 0.01% Triton. 0.43% of 200,000 active;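 further: plate controls were neutral wells for no effect and buffer without enzyme for full effect; nearly all actives have a fitted effect of over 40% in size; top concentration of the series not given in the record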
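Sodium acetate buffer (100 mM, pH 5.5) containing 5 mM DTT and 0.01% Triton X-100 hosted 1.5 nM cruzain and test compound for 15 min at room temperature. Cleavage of 2 uM Z-FR-AMC was then tracked by fluorescence.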
RE007 growth inh: less growth of the S. pombe RE007 Vpr strain; 0.21% of 360,000 active; Potency, µM (titrated, usually from 92.2 µM), for the others: at the top dose activity change, negative = less growth; AID 651644; S. pombe RE007 Vpr strain, BacTiter-Glo ATP luminescence, 24 h; control for the full effect not named in the record; active = well fitted falling curve with a large enough effect; inconclusive = small, poorly fitted or top-dose-only effect; inactive = no such curve, though single readings can be large or run the other way;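 further: on the % scale 0 is the no-effect control and ±100 the full control effect; nearly all actives have a fitted effect of over 50% in size; the assay follows cell death caused by Vpr and the record does not say whether a fall means rescue or toxicity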
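Fission yeast strain RE007, carrying one chromosomally integrated HIV-1 vpr copy, was seeded at OD 0.01 in PMG+AL medium with 23 nL pinned compound. After 24 h at 30 °C and 99% humidity, viability was read by BacTiter-Glo luminescence.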
MARV entry inh: inhibitors of Marburg virus binding or cell entry; Marburg virus pseudotyped entry inhibition, cell reporter; control for the full effect not named in the record; about a third of the inactives were read at about 46 µM; Potency, µM (highest dose often 37.8 µM), for inactives: at the top dose activity change, negative = inhibition, most hits filed as inhibitors; 1.8% of 300,000 active; active = well fitted inhibition curve with a large enough effect; inconclusive = small, poorly fitted or top-dose-only effect, or effect the other way; inactive = flat fitted curve, though single readings scatter; tested in HEK293 cells; about a fifth of its hits are not listed in these tables; further: on the % scale 0 is the no-effect control and ±100 the full control effect; luciferase read-out
NS1 inh: inhibitors of influenza NS1 protein function | Potency, µM (top dose mostly 46.1 µM), for the others: at the highest dose activity, positive = more growth | S. cerevisiae slowed by influenza A NS1, growth recovery by OD600 | 0.4% of 270,000 active; active means well fitted rising curve with a large enough effect; inconclusive means small, poorly fitted or top-dose-only effect; inactive means no such curve, though single readings can be large or run the other way; further: nearly all actives have a fitted effect of over 50% in size
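Compounds were scored for reversing the slow growth caused by influenza A NS1 in S. cerevisiae, measured by optical density at 600 nm. Assay medium contained 2% galactose at pH 6.0; NS1-free yeast of the same strain were the positive control.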
* marks the source's active call; other numbers are inactive results; ? = inconclusive; / = not tested or not shown; & = joins results of further samples; [ ] = another dose, or the depositor's remark. Unless noted, the call rests on the fitted dose curve; in most records, active means well fitted curve in the direction sought with a large enough effect; inconclusive means small, poorly fitted or top-dose-only effect, or another doubt; inactive means no such curve, though single readings can be large; an effect the other way counts as inactive or inconclusive. Potency means the concentration at half of the fitted maximal effect.

SMILES	SARS PLpro yeast	Cruzain inh noDet	2A StopGo	LASV entry inh	Cruzain Triton	RE007 growth inh	MARV entry inh	NS1 inh
Nc1c(N=Nc2cccc(Cl)c2)c(=O)[nH]n1-c1ccccc1	-8%	?	52%[activator]	-13%	-0.2%	3%	-1%	14%
CC#CCc1cc2ccccc2c(=O)o1	10%	/	-11%	/	/	12%	/	5%
CCC(=O)N(Cc1cc2cccc(C)c2[nH]c1=O)c1ccccc1OC	-4%	-6%	/	-3%	3.3%	0%	-2%	-8%
CCOc1ncccc1C(=O)NCCc1ccc(Cl)cc1	-3%	/	-16%	?	/	15%	-3%	-33%
CN1CCC(=NNc2ccc(S(=O)(=O)N3CCOCC3)cc2[N+](=O)[O-])CC1	?	12%	-29%	?	-3.5%	17%	-1%	28%
N/C(=N\OC(=O)CC1CCCCC1)c1ccccc1	-80%	13%	0%	13%	0.8%	?	?	-19%
O=C(CN1C(=O)CCC1=O)c1ccc(-c2ccccc2)cc1	-7%	-9%	22%	?	-1.4%	28%	?	14%
O=C(NNC(=O)C1CCCO1)c1ccc(Cl)cc1 (stereo not drawn)	5%	0%	1%	13%	0.3%	-1%	?	15%
COc1ccc(-n2c(SCc3ccc(C#N)cc3)nnc2-c2ccccn2)cc1	2%	1%	-19%	?	-0.7%	6%	8%	-10%
COc1cccc(C(c2sc3nc(-c4ccco4)nn3c2O)N2CCC(O)CC2)c1 (stereo not drawn)	/	2%	-3%	-19%[46.1 µM]	-2.2%	/	/	/
CCOC(=O)c1cc(CC)sc1NC(=O)COC(=O)C1CCC1	0%	/	-1%	/	/	-9%	/	-5%
O=C(Cn1cc2c(n1)CCCCC2)Nc1c(F)cc(F)cc1Br	1%	/	-12%	-9%	/	-17%	-6%[46.1 µM]	-3%
COc1ccc(NC(=O)COc2ccccc2F)cc1S(=O)(=O)N1CCCCC1	0%	/	-11%	?	/	0%	-22%	-6%
O=C(CSc1nnc(-c2c[nH]c3ccccc23)n1-c1ccc(F)cc1)NCc1ccco1	26%	-8%	-4%	-2%	-5.4%	9%	-20%	-22%
CCOc1ccc(-n2ccnc2SCC(=O)Nc2cccc3ccccc23)cc1	/	12%	-19%	3%[46.1 µM]	-4.1%	/	/	/
COc1ccc(-c2csc(Nc3cccnc3)n2)cc1OC	-9%	-9%	-2%	5%	1.8%	1%	-4%	-7%
COc1ccc(CN2CCOCC2)cc1Br	-3%	-15%	31%[activator]	-9%	6.5%	-3%	9%	0%
CCOc1ccccc1NC(=O)c1ccc(Cl)c(NC(=O)CC(c2ccccc2)c2ccccc2)c1	3%	?	/	-4%	0.1%	103%	15µM*	21%
Cc1ccc(C)c(OCCCN2CCc3ccccc3C2)c1	-5%	/	-10%	?	/	-12%	?	-9%
COCCNC(=O)C(c1cccs1)N(CCc1ccccc1)C(=O)Cn1nnc2ccccc21 (stereo not drawn)	2%	?	12%	?	10%	?	-3%&15%	-21%
CCOC(=O)c1c(NC(=O)c2nn(CC)cc2Br)sc(C)c1C	-6%	?	-9%	-14%	-10%	16%	-26%	-15%
CN(C)/C=C/C(=O)c1cccc(Oc2ncccn2)c1	1%	/	?	-5%[46.1 µM]	/	2%	?	1%
O=C1/C(=C/c2ccc([N+](=O)[O-])cc2)C=C(c2ccccc2)N1c1ccc(O)cc1	-8%	?	?	?	-6.1%	4%	-29%	8%
O=c1c2ccccc2nc(-c2ccccc2)n1-c1nccs1	11%	0%	-4%	1%	-0.6%	-15%	4%	1%
O=[N+]([O-])c1ccc(-c2ccc(/C=N/n3cnnc3)o2)c(Br)c1	1%	/	?	/	/	2%	/	-24%
CCC(CC)C(=O)NCCNC(=O)C(CC)CC	1%	0%	-12%	-8%	-2.4%	0%	-18%[46.1 µM]	9%
C/C(=N/OC(=O)c1c(-c2c(Cl)cccc2Cl)noc1C)c1cnccn1	-1%	/	0%	-8%	/	-2%	-39%[46.1 µM]	0%
CC(Oc1ccc(Cl)cc1Cl)c1nc(-c2ccc(NC(=O)c3ccncc3)cc2)no1 (stereo not drawn)	-16%	?	16µM*	?	0.1%	-16%	?	-3%
CCOC(=O)c1ccc(NC(=O)N2CCCCC2)cc1	-8%	-1%	46%[activator]	-26%	-0.9%	-7%	-7%[46.1 µM]	-61%
CSCC[C@H](NC(=O)C1CCN(C(=O)[C@@H](N)Cc2ccccc2)CC1)C(=O)O	0%	/	?	/	/	12%	/	5%
CNS(=O)(=O)c1cccc(C(=O)OCC(=O)NC2CCCC2)c1	0%	/	8%	/	/	3%	/	-3%
CCn1c(SCC(=O)N/N=C/C=C/c2ccco2)nnc1-c1ccccc1	1%	-7%	-13%	-20%	-6.4%	-5%	6%	13%
CC(OC(=O)c1ccc(S(=O)(=O)N(C)c2ccccc2)cc1)C(=O)NCCC1=CCCCC1 (stereo not drawn)	12%	6%	-28%	?	-2.0%	21%	-10%	16%
N#Cc1c(N2C(=O)C3C4C=CC(C4)C3C2=O)sc2c1CCC2 (stereo not drawn)	1%	1%	-1%	3%	1.4%	-17%	?	-3%
CN(Cc1ccccc1)C(=O)[C@@H]1CCCN1S(=O)(=O)c1ccc(Cl)cc1	-1%	/	24%	-21%[46.1 µM]	/	-1%	-14%[46.1 µM]	15%
Cc1ccc(NC(=O)NCCOCCn2c(=O)oc3ccccc32)cc1C	/	10%	-29%	14%[46.1 µM]	-0.3%	/	0%[46.1 µM]	/
Clc1cccc(Cl)c1CON/C=N/c1ncnc2sccc12	-1%	-4%	?	?	-4.8%	4%	?	-2%
COc1cc(/C=C/C(=O)Nc2nc3ccc(S(=O)(=O)N(C)C)cc3s2)cc(OC)c1OC	-1%	-2%	-6%	4%	-7.9%	-14%	?	11%
CCCSCCCNC(=O)c1ccccc1NC(=O)C1=CSCCO1	-5%	/	-13%	/	/	0%	/	-17%
COc1ccc([N+](=O)[O-])cc1NC(=O)C(C)OC(=O)CN1C(=O)C2CC=CCC2C1=O (stereo not drawn)	-6%	/	-17%	8%	/	-15%	-5%[46.1 µM]	/
CCOC(=O)C(NC(C)=O)C(=O)Nc1ccc(C(C)C)cc1 (stereo not drawn)	-2%	/	-11%	-9%	/	5%	14%[46.1 µM]	6%
O=C1NN(c2ccc(Cl)cc2)C(=O)/C1=C\c1ccc(-c2cccc(C(=O)O)c2)o1	0%	/	52%[activator]	4%	/	2%	?	/
COc1cccc(CNC(=O)CCCN2C(=O)CSc3c2c(C)nn3-c2ccccc2)c1	/	?	-27%	-5%[46.1 µM]	-5.3%	/	/	/
O=C(C1CCN(S(=O)(=O)c2cnc[nH]2)CC1)N1CCN(Cc2ccc3c(c2)OCO3)CC1	8%	7%	-11%	?	7.1%	-12%	5%	0%
Cc1cc(C(=O)N2CCN(S(C)(=O)=O)CC2)cs1	8%	0%	17%	15%	8.2%	2%	17%	10%
CC1=Nn2c(nnc2-c2ccc(F)cc2)SC1	6%	0%	9%	8%	0.2%	17%	11%	10%
COc1cc(C(=O)NCC2CCCO2)cc(OC)c1OC (stereo not drawn)	12%	9%	25%	?	1.6%	-7%	15%	3%
Cc1ccc(COc2ccsc2C(=O)NNC(N)=S)cc1	-1%	/	-2%	-2%[46.1 µM]	/	-1%	-8%[46.1 µM]	13%
CC(Sc1nnnn1C)C(=O)NC(=O)NC1CCCCC1 (stereo not drawn)	-3%	/	0%	/	/	17%	/	1%
CCOc1ccc(CCNC(=O)CCc2nnc3ccc(N4CCCCC4)nn23)cc1OCC	-1%	/	-15%	/	/	-4%	/	2%
COc1ccc(CNC(=O)C(=O)NCC(c2ccco2)S(=O)(=O)c2ccc(Cl)cc2)cc1 (stereo not drawn)	/	-2%	?	-29%[46.1 µM]	-3.0%	/	/	/
O=C(Cc1ccccc1)NC1CC(=O)N(c2ccccc2)C1 (stereo not drawn)	/	12%	-15%	18%[46.1 µM]	-0.3%	/	/	/
CCN(c1ccccc1)S(=O)(=O)c1ccc(Cl)c(NC(=O)CSc2nncs2)c1	-6%	-1%	-8%	?	-3.9%	1%	?	-4%
CCOC(=O)C(CC)(CC)C(=O)/C=C/c1cccc(Br)c1	/	/	22µM*	?	/	-7%	?	/
CSCCCNC(=O)c1ccccc1OC1CCN(S(C)(=O)=O)CC1	0%	/	9%	/	/	3%	11%[46.1 µM]	-2%
O=C(Nn1cnnc1)c1ccccc1F	-1%	/	-4%	18%[46.1 µM]	/	10%	3%[46.1 µM]	-2%
O=C(c1ccoc1)N1CCC2(CC1)Oc1ccc(Cl)cc1C(=O)C21CC(c2ccccc2)=NO1 (stereo not drawn)	1%	/	-25%	/	/	0%	/	-2%
CC(=O)Nc1ccc(NC(=O)C2CCCN(S(=O)(=O)c3ccc(-n4cnnn4)cc3)C2)cc1 (stereo not drawn)	-1%	/	19%	-24%	/	1%	-7%[46.1 µM]	15%
C=C(C)Cn1c(N2CCN(c3ccc(OC)cc3)CC2)nc2c1c(=O)n(C)c(=O)n2C	-1%	/	28µM*	?	/	8%	?	/
Cc1nc(C(=O)Nc2ccccc2)sc1C1(C)CC(c2cccnc2)=NO1 (stereo not drawn)	-1%	/	16%	/	/	12%	/	-3%
Later entries:
SMILES	SARS PLpro yeast	Cruzain inh noDet	2A StopGo	LASV entry inh	Cruzain Triton	RE007 growth inh	MARV entry inh	NS1 inh
COCCN(C(=O)CC1C(=O)NCCN1Cc1ccc(-c2ccccc2)cc1)C(C)C (stereo not drawn)	0%	/	-12%	/	/	6%	/	-6%
COC(=O)c1ccc(C(=O)OC)c(NC(=O)c2c(-c3ccccc3)c(-c3ccccc3)nn(C)c2=O)c1	/	?	-15%	3%[46.1 µM]	-5.1%	/	24%[46.1 µM]	/
COc1ccc(-n2nc(C(=O)Nc3ccc(Cl)cn3)c3c4ccccc4n(C)c3c2=O)cc1Cl	/	-12%	-11%	?	0.1%	/	13%[46.1 µM]	/
O=C(CSc1nnc(-c2c[nH]c3ccccc23)o1)N1CCCCC1	-2%	0%	/	-15%	-2.2%	4%	?	-16%
